Compound activity: PubChem BioAssay, ICCB-Longwood Screening Facility, Harvard Medical School
Ba CapD inh: blocks the Bacillus anthracis CapD enzyme; z-score (no concentration beside the values); purified CapD enzyme, fluorescence intensity read-out; stronger effect = lower value; some hits fall short of the stated cut; 0.23% of 140,000 active;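 active means z-score under -4 in either of two replicates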;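 further: stock transfer was 100 nL into about 40 µL; score is relative to mean and spread of the plate; one replicate is shown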
AID504770: E. coli YBA685 growth inhibition, screen for V. cholerae RctB inhibitors | E. coli YBA685 rctB-dependent plasmid, OD600 growth, 3 h; stronger effect = lower value | z-score (no concentration beside the values) | 0.27% of 130,000 active | AID 504770;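 active means z-score under -2 on both plates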;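 further: wells of about 30 µL received 100 nL stock; score is relative to mean and SD of the test wells; the first replicate is given; strong numbers were not always called active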
An asterisk follows results filed as active; / = not tested or not shown.

A first look:
structure,AID504770,Ba CapD inh
O=C(CCC(C(=O)O)N1C(=O)c2ccccc2C1=O)Nc1ccc2c(c1)COCO2 (configuration not stated),-1.1,0.67
CC(C)CN1C(=O)/C(=C/C=C/c2ccccc2)SC1=S,0.15,72

Main list, from the start:
structure,AID504770,Ba CapD inh
O=C(CCC(C(=O)O)N1C(=O)c2ccccc2C1=O)Nc1ccc2c(c1)COCO2 (configuration not stated),-1.1,0.67
CC(C)CN1C(=O)/C(=C/C=C/c2ccccc2)SC1=S,0.15,72
O=C1CSC(=Nc2ccccc2)N1,0.15,-0.36
CCOC(=O)C1=C(CSc2nc(-c3cccs3)ccc2C#N)OC(N)=C(C#N)C1c1ccc(Cl)cc1 (configuration not stated),/,17
N#Cc1cc2c(cc1C#N)N(Cc1ccccc1)CCN2Cc1ccccc1,0.6,-0.035
Cn1c(N)cc(=O)n(C)c1=O,0.9,/
C=CCN1C(=O)/C(=c2\sc3n(c2=O)C(c2ccc(Cl)cc2)C(C(=O)OCC)=C(C)N=3)c2ccccc21 (configuration not stated),/,-0.26
COc1cc(CO)ccc1OCc1cc(Cl)cc2c1OCOC2,0.05,/
COC(=O)c1ccc(NC(=O)COc2cccc3c2CCNC3=O)cc1,-1.1,/
Cc1cccc(N2COc3ccc(Br)cc3C2)c1,-0.45,0.37
CCN(CC)CCOC(=O)c1ccc2nc(NC(=O)c3ccc(C(=O)OC)cc3)sc2c1,/,1.4
O=C(CSc1nc2ccc(NC(=O)CSc3nnnn3Cc3ccccc3)cc2s1)Nc1ccccc1,/,0.4
Cc1ccc(OCC(O)CN2CCC(C(N)=O)CC2)cc1C (configuration not stated),-0.25,0.39
Oc1ccc(N=Cc2c[nH]c3ccccc23)cc1,-0.7,2.5
Cc1ccc(-n2c(-c3ccco3)n[nH]c2=S)c(C)c1,/,0.56
CN(CCOC(=O)NNC(=O)c1ccccc1-n1cccc1)Cc1ccccc1,/,-0.86
COC(=S)NC(=O)/C=C/c1ccccc1,-0.2,-0.74
Cc1cc(C)c(NC(=O)C2CC3c4ccccc4C2C2C=CC=CC32)c(C)c1 (configuration not stated),-0.35,0.29
FC(F)(F)c1cccc(Nc2ncnc3c2cnn3-c2ccccc2)c1,-0.05,2
O=C(N/N=C/c1ccc(Oc2ccccc2)cc1)c1ccc(Cn2cnc(Cl)c2Cl)o1,/,0.7
CCOC(=O)c1ccc(-n2c(O)c(/C=N/N3CCOCC3)c3ccccc3c2=O)cc1,-0.5,/
Cc1cccc(Nc2nc3nonc3nc2Nc2cccc(C)c2C)c1C,-1.4,/
OC(CN1CCN(c2ccc(C(F)(F)F)cn2)CC1)c1cc(-c2cc(Cl)cc(Cl)c2)no1 (configuration not stated),-0.35,0.64
COC(=O)c1sc2nc(C)cc(C(F)(F)F)c2c1N,1.2,0.11
COc1ccccc1/C=C1\SC(=O)N(CCC(=O)N2c3ccccc3Sc3ccccc32)C1=O,0,0.34
CCOc1cc(C2C(C(=O)OCc3ccccc3)=C(C)NC3=C2C(=O)CCC3)cc(Br)c1O (configuration not stated),/,13
O=C(O)CSC(SCC(=O)O)c1cccs1,/,-0.3
COc1ccc(NC(=O)CSc2nc3ccncc3[nH]2)cc1,-0.5,-0.24
Cc1ccc2nc(Nc3ccc4[nH]c(=O)[nH]c4c3)c(-n3nc(C)cc3C)nc2c1,-0.65,-2.4
CCc1ccc2nc(Nc3nc4ccccc4c(=O)[nH]3)nc(C)c2c1,0.35,2.6
N#CCCSc1nnc(-c2ccc(Br)cc2)n1CCc1ccccc1,1.4,/
C(CCC=C(c1ccccc1)c1ccccc1)=C(c1ccccc1)c1ccccc1,/,-0.065
CCCCn1c(SCC(=O)N2CCCC2)nc2ccccc2c1=O,1,/
O=C(CSc1ncn[nH]1)N1c2ccccc2CCc2ccccc21,-0.5,-0.84
COc1ccc(OC)c(S(=O)(=O)NCc2cc(-c3ccccc3)no2)c1,/,-0.3
CC(C)(C)NCC(O)COc1ccc(Br)cc1 (configuration not stated),2,-0.61
O=c1c2ccccc2nc(CSc2ncnc3nc[nH]c23)n1-c1ccc(Cl)c(Cl)c1,/,-0.3
CSc1nsc(SC)c1-c1nn[nH]n1,0.75,0.07
O=C(Nc1ccc(F)cc1F)N1CCC(c2c[nH]c3ccccc23)CC1,/,-0.26
O=c1c(C=NCCc2ccccc2)c(NCCc2ccccc2)nc2ccccn12,-0.05,71
COc1ncnc2c1cnn2C,-0.1,-0.12
COc1ccc(-c2cc(C(F)(F)F)n3nc(C(=O)NCCN4CCOCC4)cc3n2)cc1,-0.55,16
O=C(NCC1CCCC(CNC(=O)Nc2ccc3c(c2)OCO3)C1)Nc1ccc2c(c1)OCO2 (configuration not stated),0.15,/
CC12CN(C(=O)c3ccccc3)CC(C)(CN(C(=O)c3ccccc3)C1)C2,-0.35,0.095
O=C(Cn1cncn1)c1ccc(Cl)cc1,0.5,-0.44
O=C(Oc1ccc(F)cc1)c1nsc(Cl)c1Cl,0.8,0.33
COc1ccc(CCn2c(=O)c3cc4c(=O)n(CCc5ccc(OC)c(OC)c5)c(=O)c4cc3c2=O)cc1OC,/,-0.25
CC(=O)Nc1nnc(CCS(=O)(=O)c2ccc3ccccc3c2)s1,2.2,/
CC(=O)n1c(C#N)c(O)c2ccccc21,-0.8,-1.4
Cc1ccc(NC(=O)Cn2c(=O)oc3cc(S(=O)(=O)NC4CCCC4)ccc32)cc1,-1.4,1.2
O=C(O)CCCNc1ncnc2c1oc1ccccc12,/,1.6
CC(Cc1c[nH]c2ccccc12)N(Cc1ccccc1)Cc1ccccc1 (configuration not stated),0,6
CC1=C(C(=O)Nc2ccc(Cl)cc2)C(c2ccco2)C(C#N)=C(SCC(=O)Nc2ccc(Cl)cc2)N1 (configuration not stated),/,-0.47
CCNC(=O)c1c(C)[nH]c(C(=O)OCC)c1C,0.05,0.3
CCN1C(=O)/C(=C/c2ccc(NC(C)=O)cc2)S/C1=N\n1cnnc1,/,-1.2
Nc1nnc(CCc2ccccc2)c(=O)n1N,-0.05,/
O=C(/C=C/N1CCOCC1)c1csc(-c2ccc(C(F)(F)F)cc2)n1,0.4,10
O=C(CSc1ccc(Cl)cc1)NC1Cc2ccccc2C1,/,-0.45
Cc1cc(C)c(C#N)c(SCc2cccnc2)n1,-0.5,/
Cc1onc(-c2ccccc2)c1C(=O)N1CCOCC1,-0.6,/

More structures.
structure,AID504770,Ba CapD inh
O=C(CCN1CCOCC1)Nc1ccc(Cl)cc1,-0.15,/
Cc1ccc(-c2noc(CNC(=O)CC3CCCCC3)n2)cc1,-0.5,0.48
Nc1ccncc1Cl,0.45,/
O=C(N=Nc1c(O)[nH]c2ccccc12)C1C2CCCCC21 (configuration not stated),0.2,/
COCCn1c(C)cc(/C=C(\C#N)C(=O)C(C)(C)C)c1C,0.2,/
O=C(NCc1ccccc1)C1CCN(S(=O)(=O)N2CCCCCC2)CC1,-1.1,7.3
CC(C)C(=O)N1c2ccccc2C(N(C(=O)c2ccc(F)cc2)c2ccccc2)CC1C (configuration not stated),/,0.55
O=c1c(-c2ccccn2)coc2cc(O)ccc12,-0.5,0.11
O=C1NC(=O)C2(C(=O)N1)C(c1ccc(Cl)cc1)NC(=S)NC2c1ccc(Cl)cc1 (configuration not stated),-0.05,0.035
COC(=O)c1ccc(-c2ccc(/C=C3\C(=O)N(c4cccc(C(=O)O)c4)N=C3C(F)(F)F)o2)cc1,/,-0.23
COC(=O)/C=c1/sc2n(c1=O)C(C)=CC(C)(C)N=2,0.2,-0.12
CCCNC(=O)c1ccc(-n2cc(-c3cnccn3)cn2)cc1,/,3.5
CC(C)c1ccc(OCc2nnc(SCC(=O)NC3CCCCC3C)o2)cc1 (configuration not stated),0.1,0.02
N#Cc1c(N)nc(SCc2ccccc2)c(C#N)c1-c1ccccc1,-1.4,0.065
CCOc1ccc2cc(C3CC(c4ccc(OC)cc4)=NN3)c(Cl)nc2c1 (configuration not stated),/,13
CC1CN(c2nc3ccccc3nc2SCC(=O)Nc2ccc(F)cc2)CC(C)O1 (configuration not stated),1.2,-0.085
CC(O)c1ccc(Oc2ccc(C(C)O)cc2)cc1 (configuration not stated),2.7,-0.56
Cc1cccc(NS(=O)(=O)c2ccc(C)c(C(=O)NN3CCN(C)CC3)c2)c1,0.85,/
N#Cc1cc2c(=O)n3ccccc3nc2n(CCc2ccccc2)c1=O,-0.15,0.42
Cc1cc(C)c2c(c1)CC(C)(C)c1nc3c(Cl)cc(C(F)(F)F)cc3nc1-2,/,-0.14
Cc1ccccc1N1CCN(C(=S)c2ccc(N(C)C)cc2)CC1,1.1,0.25
COc1cc(N2C(=O)c3ccccc3C2=O)c(Cl)cc1C(=O)OCC(=O)N1CCCC1,-0.35,/
O=C(Cn1cc(/C=C2\C(=O)NC(=O)N(Cc3ccccc3)C2=O)c2ccccc21)NCc1ccco1,-0.35,/
CN(C)CCOC(=O)C12CCC3CC(CC(C3)C1)C2,-0.2,0.44
O=C(NO)c1cccs1,1.1,-0.53
CN(C(=O)Cn1c(=O)sc2ccccc21)c1nnc(SCc2ccccc2)s1,-0.05,0.4
Cc1cccc(N2CC(O)(c3ccc(F)cc3)[N+]3=C2SCCC3)c1 (configuration not stated),/,-0.12
O=S(=O)(NCc1ccccc1)c1ccc2c(c1)Cc1cc(S(=O)(=O)NCc3ccccc3)ccc1-2,/,0.86
CC1(C)CC(=O)c2c([nH]c(-c3ccccc3)c2-c2ccccc2)C1,3,4.2
Cc1ccc(NC(=O)c2ccco2)cc1F,-0.8,0.08
CCn1c(CCC(=O)Nc2ccc(N3CCOCC3)cc2)nc2cc(S(=O)(=O)N(C)C)ccc21,-0.05,/
Cc1cc(=O)n2[nH]c(NCc3ccccc3)nc2n1,-0.65,0.32
COc1ccc([C@@H]2C(C#N)=C(N)S[C@H]2C(=O)c2ccccc2)cc1,/,-0.38
O=C1NN(c2ccccc2)C(=O)/C1=C\c1ccccc1,0.8,/
Cc1ccc(C(=O)/C=C/C(=O)c2ccc(C)cc2)cc1,1.3,-0.37
CSc1ncccc1C(=O)NC(CC(C)C)C(=O)O (configuration not stated),/,-0.12
Cn1c(=O)[nH]c(=O)c2c1nc(SCC(=O)c1ccc(Cl)cc1)n2CC(O)COc1ccc(Cl)cc1 (configuration not stated),/,0.055
O=S(=O)(c1ccc(C2CCCCC2)cc1)N(CCCN1CCOCC1)Cc1cccs1,-0.55,2.4
O=C(Cn1cnc2sc3c(c2c1=O)CCCC3)NCCCC(=O)Nc1ccc(Oc2ccccc2)cc1,/,-0.97
O=C(c1cnc(-c2ccc(Cl)cc2)s1)c1ccc(Cl)cc1Cl,/,-0.38
CCN(CC)c1ccc(NC(=O)C2c3ccccc3Oc3ccccc32)cc1,-0.55,-0.24
COc1c(C)c(C)cc(C)c1C,-0.2,0.27
COc1ccc(-n2c(SCc3cc(=O)n4cc(Br)ccc4n3)nc3[nH]ncc3c2=O)cc1,/,3.3
COc1cc(/C=C2\C(=O)NN(c3ccccc3)C2=O)ccc1Oc1nc(Cl)ncc1F,/,0.2
NCCc1cccs1,1.6,/

Single records, from the list above. Screens in order: AID504770 | Ba CapD inh
Record of O=C1NN(c2ccccc2)C(=O)/C1=C\c1ccccc1 → 0.8 | /
Record of O=C(c1cnc(-c2ccc(Cl)cc2)s1)c1ccc(Cl)cc1Cl → / | -0.38
Record of O=S(=O)(c1ccc(C2CCCCC2)cc1)N(CCCN1CCOCC1)Cc1cccs1 → -0.55 | 2.4

Next section.
structure,AID504770,Ba CapD inh
CCO/C=C1\SC(=S)N(/N=C/c2cccc(Cl)c2)C1=O,1.2,-4.4*
CCCn1c(-c2ccc(F)cc2)n[nH]c1=O,1.9,0.22
CC(=O)Nc1nnc(SC(C)C(=O)Nc2ccc(S(N)(=O)=O)cc2)s1 (configuration not stated),-1.3,0.12
CCOc1cc(/C=C2\C(=O)NC(=O)N(c3cccc(Br)c3)C2=O)ccc1OCC(=O)O,/,-0.1
O=C1CCC(c2ccccc2)c2cc(Oc3c(F)c(N4CCOCC4)nc(F)c3Cl)ccc21 (configuration not stated),0.45,-0.42
Cc1occc(=O)c1OC(=O)c1cccs1,-0.25,/
O=C(O)c1cc(N2C(=O)C3C4c5ccccc5C(c5ccccc54)C3C2=O)ccc1Cl (configuration not stated),/,-0.12
CC1(C)Cc2nc3sc4c(=O)n(CC(=O)c5ccc(Cl)cc5)cnc4c3cc2CO1,-2.4,2.9
CC1CN(C(=O)c2cccn(Cc3c(Cl)cccc3Cl)c2=O)CC(C)O1 (configuration not stated),/,1.1
O=C(Nc1cccc(C(F)(F)F)c1)Nc1ccccc1C(=O)N1CCC(c2c[nH]c3ccccc23)CC1,/,-0.58
COc1ccc2oc(=O)c(-c3nc(-c4ccc(Cl)cc4)cs3)cc2c1,0.15,0.01
CCN1C(=O)/C(=C2/C=Cc3ccccc3N2CC)SC1=Nc1ccc(OC)cc1,/,0.09
NC(=O)c1csc(-c2ccncc2)n1,-0.9,0.77
Nc1c(Cl)nc(-c2ccccc2)nc1Cl,-1.2,/
Cc1ccc(O)c(NC(=O)c2cccs2)c1,-0.4,-0.64
COC(=O)c1cc2c(ccn2-c2ccc(F)cc2)n1CC1CCCCC1,0.3,/
